CDC25B CDK2 inh: human CDC25B-CDK2/CyclinA binding inhibition. HTRF CDC25B-CDK2/CyclinA binding, anti-His/anti-Flag; hits give high values. z-score (concentration not given with the values). P30305+P24941. actives 0.72% (n = 94,000);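 further: score is relative to mean and SD of negative controls; strong numbers were not always called active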
HIV TAR-Tat: HIV-1 TAR-Tat binding disruption; HIV-1 TAR RNA, Tat peptide displacement FRET; hits give high values; z-score (test concentration not listed); actives 0.6% (n = 100,000);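 further: score is relative to mean and SD of negative controls; some compounds called inactive have numbers as strong as hits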
Numbers without * were called inactive; x = not tested or not shown.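 How the source made its calls: active means z-score from 3 up in half or more of its runs; inactive means the rest.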

SMILES | CDC25B CDK2 inh | HIV TAR-Tat
COC(=O)c1cc2ccsc2n1CC(=O)NCCC1=CCCCC1 | -0.59 | x
C/C(Cc1ncn(-c2cc(C)on2)n1)=N\O | -1.4 | x
COc1ccc(-c2nc(-c3cccc(C)c3)no2)cc1OC | 0.53 | -0.26
COC(=O)c1cc(S(=O)(=O)NCc2ccc3c(c2)OCO3)c[nH]1 | x | 1.9
c1ccc(-n2ncc3c(NCc4ccc5c(c4)OCO5)ncnc32)cc1 | x | 1.3
O=C1c2oc3ccc(F)cc3c(=O)c2C(c2cccs2)N1CCCN1CCOCC1 (stereo not drawn) | x | 0.94
CCN(CCN(C)C)C(=O)Cn1ncc2c(=O)oc3ccccc3c21 | 0.18 | 1
Cc1ccc(O)c(C2=NN3C(C2)c2ccccc2OC3c2cccnc2)c1 (stereo not drawn) | 2.5 | 0.88
CC1CCC(Nc2c(-c3ccc(Cl)cc3)nc3c(C#N)c[nH]n23)CC1 (stereo not drawn) | 0.58 | -0.6
O=C(NCCCO)Nc1c[nH]c2ccccc2c1=O | -1.6 | -1.3
CCCCSc1nc2c(c(=O)[nH]c(=O)n2C)n1CC(O)COc1ccc(Cl)cc1 (stereo not drawn) | -0.97 | 0.98
Cc1ccc(OC(C)c2nc3ccccc3[nH]2)c(C)c1 (stereo not drawn) | 1.2 | 0.77
CC(=O)N1N=C(c2ccncc2)OC1c1cn(-c2ccccc2)nc1-c1cccs1 (stereo not drawn) | -1.4 | x
O=C(NCc1ccc2c(c1)OCO2)c1ccc(NC(=O)N2CCSc3ncccc32)cc1 | x | 0.55
CCc1ccc(NS(=O)(=O)c2ccc(-c3ccc(=O)[nH]n3)o2)cc1 | x | 1.6
COC(=O)c1c(C)oc2ccc(O)cc12 | -1.2 | 3.4
CCC1Sc2ccc(S(=O)(=O)CCC(=O)Nc3cccc(Br)c3)cc2NC1=O (stereo not drawn) | x | -0.26
O=C(NCCCN1CCC(N2CCCCC2)CC1)C1CCCN(S(=O)(=O)N2CCCCC2)C1 (stereo not drawn) | x | 2.4
Cc1ccc(C(=O)Nc2c(C)nc3c(C)cccn3c2=O)cc1 | x | 0.35
O=C(Nc1ccc2c(c1)OCCO2)N1CCn2cccc2C1Cc1ccccc1 (stereo not drawn) | x | -1.6
Cn1nc(C(=O)NCCN2CCCC2)c2c1-c1ccccc1S(=O)(=O)C2 | -0.97 | 0.14
CC1(C)CC(=O)C2=C(C1)OC(N)=C(C#N)C2c1ccccc1OCc1ccc(Cl)cc1 (stereo not drawn) | -0.94 | x
CCn1nc(C)c(CNC(=O)NCC(C)C)c1C | x | 1.9
O=c1[nH]nc(-c2ccc(Br)cc2)nc1Cc1ccc(Cl)cc1 | x | 2.2
Cc1cc(Cn2cnc3c2C[C@@H](C(=O)O)N(C(=O)C(c2ccccc2)c2ccccc2)C3)ccc1N | -2 | x
CN(C)NC(=O)NC(=O)c1ccc([N+](=O)[O-])o1 | -1.3 | x
COc1ccc2[nH]cc(C(=O)O)c(=O)c2c1 | -0.92 | 1.8
Cc1cccc(Nc2c(C)c(C)nc3ncnn23)c1 | x | 1
COC(=O)COc1cc(Br)c(C2C(C#N)=C(N)Oc3c2ccc2ccccc32)cc1OC (stereo not drawn) | -0.59 | -0.24
CC(C)(C)c1csc(N)n1 | -2.2 | x
CC(=O)N1CCc2cc(S(=O)(=O)N=S(C)(=O)c3ccc(C)cc3)ccc21 (stereo not drawn) | -1.2 | x
CCOC(=O)N1CCN(C(=O)Nc2ccc3snnc3c2)CC1 | -0.22 | 1.9
COc1cc(OC)c(OC)cc1CN1CCC(N2CCC(C)CC2)CC1 | -0.09 | x
Cc1ccccc1-c1noc(-c2nnn(-c3ccccc3)c2C)n1 | x | 0.36
O=C(Cn1cc(S(=O)(=O)Cc2ccccc2)c2ccccc21)N1CCc2ccccc21 | x | -1.3
COc1ccc(NC(=O)Nc2nnc(N3CCCCC3)s2)cc1OC | -1.6 | 0.62
Cc1cc(-c2ccc(S(=O)(=O)Nc3ccc(C)c(C)c3)s2)n[nH]1 | x | -1.1
O=C(c1cc(-c2ccc(F)cc2)no1)N1CCCC1c1cccc(F)c1 (stereo not drawn) | 0.57 | 0.46
Nc1c(-c2nc(-c3ccccc3Cl)no2)nnn1-c1cccc(F)c1 | x | 0.35
CCOC(=O)c1c(C)oc2ncnc(Nc3ccc(OCC)cc3)c12 | x | 0.89

Entries of single compounds, looked up by structure:
O=C(Nc1ccc2c(c1)OCCO2)N1CCn2cccc2C1Cc1ccccc1 (stereo not drawn) as listed: CDC25B CDK2 inh = x; HIV TAR-Tat = -1.6
COC(=O)c1cc2ccsc2n1CC(=O)NCCC1=CCCCC1 as listed: CDC25B CDK2 inh = -0.59; HIV TAR-Tat = x

Additional compounds follow.
SMILES | CDC25B CDK2 inh | HIV TAR-Tat
Cc1nn(CC(=O)NCCc2cccs2)c(=O)c2cc3ccccc3n12 | 0.76 | 1.4
Cc1oc(-c2cccc(Cl)c2)nc1CN1CCN(S(=O)(=O)N(C)C)CC1 | x | 0.2
c1ccc(N2CN3CN2CN3c2ccccc2)cc1 | -2.6 | x
O=C1c2ccccc2C(=O)c2cc(NC(=O)c3cccc4c(Br)cccc34)ccc21 | -1.6 | x
c1cc(N2CCOCC2)ccc1CNc1ccc(-n2cnnn2)cc1 | -1.3 | -1.6
CCCN(C(=O)Cn1ncc2c1-c1ccccc1OC2)c1ccccc1F | -1.1 | x
CSc1nc(N2CCOCC2)nc(-c2ccccc2)c1C#N | -1.8 | x
CC1=CC(C)(C)N=C(Nc2nc(C)c3cc(C)cc(C)c3n2)N1 | 0.74 | -0.04
COc1ccc(Nc2nc(N)c([N+](=O)[O-])c(OC)n2)cc1 | x | 1.5
C#CC(C)(CC)OC(=O)NC(=O)c1c(Cl)cccc1Cl (stereo not drawn) | -1.3 | x
O=C(Nc1ccc2c(c1)OCO2)C1Cc2ccccc2N1C(=O)c1ccccc1 (stereo not drawn) | x | 1.1
CCCn1ccc2cc(S(=O)(=O)N3CCN(S(=O)(=O)c4ccc5ccccc5c4)CC3)ccc21 | -1.7 | -0.33
Cc1cccc(-n2c(C)c(C)c3c2ncn2nc(-c4ccco4)nc32)c1 | -1.3 | 0.82
O=C(O)CCCn1c(=O)[nH]c2ccccc2c1=O | -2 | x
Cc1nn(Cc2ccccc2Cl)c(=O)c2noc(C)c12 | x | 0.69
O=C(CN1C(=O)c2ccccc2Sc2ncccc21)N1CCN(c2ccccn2)CC1 | x | 0.16
CC1CCCCN1C(=O)CSc1nc(-c2ccc(C(C)(C)C)cc2)nc2cc(=O)[nH]n12 (stereo not drawn) | x | 1.8
COc1ccc(Nc2nc(NC(=O)Nc3ccc(Cl)cc3)n[nH]2)cc1 | -4.5 | x
CCNC(=O)C1Cc2cc(S(=O)(=O)N3CCOCC3)ccc2N1C(C)=O (stereo not drawn) | x | 1
CCC(=O)Oc1cccc(-n2cnnn2)c1 | -1.8 | 0.57
Cn1c(=O)c2c(nc(CN3CCC(Cc4ccccc4)CC3)n2Cc2ccccc2)n(C)c1=O | -1.1 | -0.55
COc1ccc(OC)c(C2=NS(=O)(=O)N(C)C(C(=O)N3C(C)CCCC3C)=C2)c1 (stereo not drawn) | -0.32 | 2.5
Cn1nc(C(=O)N2CCN(c3ccccn3)CC2)c2c1-c1ccsc1CC2 | x | -0.14
COc1ccc(OC)c(C2=NS(=O)(=O)N(C)C(C(=O)Nc3ccc(F)cc3F)=C2)c1 | -0.31 | 2
COc1ccc(-c2nc3n(n2)C2(CCCCC2)[C@@H]2CCCC[C@@H]2N3)cc1 | -0.71 | -0.03
Cn1c(C(=O)NCc2ccco2)cc2c(=O)[nH]c3ccccc3c21 | -1.3 | x
CSc1nnc2c(n1)OC(c1ccc(-c3ccc(F)cc3)o1)Nc1ccccc1-2 (stereo not drawn) | -2.8 | x
Cc1cc2c(cc1S(=O)(=O)NCc1ccc(C(C)C)cc1)OCC(=O)N2 | x | -1.1
O=C1CC(c2cccs2)CC2=C1C(c1ccccc1Cl)Nc1ccccc1N2 (stereo not drawn) | -1.7 | x
Cc1ccc(-c2nnc(SCc3cccc(Cl)c3)o2)cc1 | -2 | 0.49
CN(C)/C=C(\C(=O)Nc1ccc(F)c(F)c1F)S(=O)(=O)c1ccc(Cl)cc1 | -1.1 | x
NC(=O)CSc1nc2sc3c(c2c(=O)n1Cc1ccccc1)CCC3 | -1.2 | x
O=C(CSCC(=O)Nc1ccccc1)N/N=C/c1cccs1 | -2.9 | x
CC(CO)NC(=O)c1cc2ccccc2oc1=O (stereo not drawn) | -1.5 | x
Cn1c(C(=O)N2CCCC(C(=O)N3CCN(c4ccccc4)CC3)C2)cc2sccc21 (stereo not drawn) | -1.8 | 2.9
CCCC(=O)NCC(c1ccco1)N1CCOCC1 (stereo not drawn) | -0.59 | 1.2
COc1ccc(-n2nc(C(=O)Nc3ccc4c(c3)OCCO4)c3c4ccccc4n(C)c3c2=O)cc1 | -0.81 | -0.65
COc1ccc(C2C(C(=O)OC(C)C)=C(C)N=C3SCCC(=O)N32)cc1 (stereo not drawn) | 0.22 | 2.2
COC(=O)c1cc(S(=O)(=O)N(Cc2ccc(OC)cc2)Cc2cccn2C)oc1C | -2 | x
Cc1nc(-c2ccc(C)c(S(=O)(=O)Nc3ccc(Cl)cc3)c2)cs1 | x | 1.6
O=C(C(Cc1ccccc1)N1C(=O)C2C3c4ccccc4C(c4ccccc43)C2C1=O)N1CCOCC1 (stereo not drawn) | -1.2 | -0.7
CCCOc1ccc(C2C(C#N)=C(N)Oc3cc(C)oc(=O)c32)cc1OC (stereo not drawn) | -0.99 | x
O=C(Nc1nc(-c2cccs2)ns1)c1cccs1 | -0.66 | 0.42
NC(=O)CSc1nc2c(sc3ccccc32)c(=O)n1CCCC(=O)NC1CCCC1 | 0.61 | 0.27
C=CCOc1ccc2c(C)cc(=O)oc2c1 | 0.09 | x
CCC(CC)C(=O)OCc1cc(=O)n2nc(-c3cccs3)sc2n1 | x | 0.49
CCOc1ccc2c(c1)cc(C(N)=O)n2C | -1.6 | 1.6
CCCN1CNC(=S)N(c2cccc(C)c2)C1 | -1.4 | x
COc1ccc(C2=NN(C(=O)CCC(=O)O)C(c3ccc(Br)cc3)C2)cc1 (stereo not drawn) | -1.4 | -0.87
CN(C)S(=O)(=O)c1ccc2nc(NC(=O)c3ccc4c(c3)OCCO4)sc2c1 | x | 0.69
Cc1ccc(S(=O)(=O)NC(C)c2nc(-c3ccc(C(C)(C)C)cc3)no2)cc1 (stereo not drawn) | -2.3 | 0.62
CCN1CCN(c2c(S(=O)(=O)c3ccccc3)cnc3ccc(OC)cc23)CC1 | -1.1 | 1.5
COCCCNc1nc2c(S(=O)(=O)c3ccc(C(C)C)cc3)nnn2c2ccccc12 | -0.56 | 0.28
Cc1ccc(S(=O)(=O)NCC(O)c2ccccc2)cc1 (stereo not drawn) | -1 | x
O=C(NN1CC(=O)N(c2cc(Cl)cc(Cl)c2)CC1=O)c1sccc1Cl | 0.85 | x
COc1ccc(-n2ncc3c(N4CCCCCC4)ncnc32)cc1 | -1.8 | x
CCCNc1nc2c(c(=O)n(C)c(=O)n2C)n1CCC | -0.87 | 0.99
CCCc1cc(=O)n2nc(N(C)CC(=O)NCCCN3CCc4ccccc4C3)sc2n1 | 0.13 | 1.9
O=C(Nc1cccnc1)C1CCCN(S(=O)(=O)c2ccc3[nH]c(=O)ccc3c2)C1 (stereo not drawn) | x | -0.45
Fc1cc2[nH]cnc2cc1Cl | -1.4 | x

More records follow:
SMILES | CDC25B CDK2 inh | HIV TAR-Tat
O=C(O)CCC(=O)NCc1ccccn1 | -1.4 | -0.2
COc1ccc(NC(=O)c2cc3c(s2)-c2ccc(Cl)cc2S(=O)(=O)C3)cc1 | -0.97 | 1.5
Cc1ccc(S(=O)(=O)NC(=O)NC2Cc3ccccc3C2)cc1 | -1.7 | x
CCOc1ccc(-c2[nH]nc3nc(-c4ccc(O)c(OCC)c4)cc(C(=O)O)c23)cc1 | -0.12 | 1.1
COc1cc(-c2nc(-c3cccc(C)c3)no2)cc(OC)c1OC | -1.4 | x
COc1ccc(OC)c(C2CC(c3c(O)n(C)c(=O)n(C)c3=O)=Nc3ccccc3S2)c1 (stereo not drawn) | -1.6 | 1.4
O=C1CCC(c2ccccc2)C(O)=C1C=Nc1ccc(Cl)cc1 (stereo not drawn) | -0.94 | x
Cc1nnc(NCCCn2ccnc2)c2c1nnn2Cc1ccccc1Cl | -0.44 | 0.77
COc1ccc(S(N)(=O)=O)cc1-c1noc(C)n1 | -1.6 | 0.87
Cc1cc(N2CCN(c3ccccc3F)CC2)n2nc(-c3ccco3)nc2n1 | x | 0.85
COc1ccc(-c2nc3c4cnn(-c5ccc(Cl)cc5)c4ncn3n2)cc1 | 0.37 | 2.1
CCOC(=O)c1cnn(-c2cc(C)c3ccccc3n2)c1N | x | 1.2

Structural class: those above containing two or more sulfur atoms.
SMILES | CDC25B CDK2 inh | HIV TAR-Tat
CCC1Sc2ccc(S(=O)(=O)CCC(=O)Nc3cccc(Br)c3)cc2NC1=O (stereo not drawn) | x | -0.26
CC(=O)N1CCc2cc(S(=O)(=O)N=S(C)(=O)c3ccc(C)cc3)ccc21 (stereo not drawn) | -1.2 | x
Cc1cc(-c2ccc(S(=O)(=O)Nc3ccc(C)c(C)c3)s2)n[nH]1 | x | -1.1
CCCn1ccc2cc(S(=O)(=O)N3CCN(S(=O)(=O)c4ccc5ccccc5c4)CC3)ccc21 | -1.7 | -0.33
NC(=O)CSc1nc2sc3c(c2c(=O)n1Cc1ccccc1)CCC3 | -1.2 | x
O=C(CSCC(=O)Nc1ccccc1)N/N=C/c1cccs1 | -2.9 | x
Cc1nc(-c2ccc(C)c(S(=O)(=O)Nc3ccc(Cl)cc3)c2)cs1 | x | 1.6
O=C(Nc1nc(-c2cccs2)ns1)c1cccs1 | -0.66 | 0.42
NC(=O)CSc1nc2c(sc3ccccc32)c(=O)n1CCCC(=O)NC1CCCC1 | 0.61 | 0.27
CCC(CC)C(=O)OCc1cc(=O)n2nc(-c3cccs3)sc2n1 | x | 0.49
CN(C)S(=O)(=O)c1ccc2nc(NC(=O)c3ccc4c(c3)OCCO4)sc2c1 | x | 0.69
COc1ccc(NC(=O)c2cc3c(s2)-c2ccc(Cl)cc2S(=O)(=O)C3)cc1 | -0.97 | 1.5
